Bioassay records as filed in PubChem.
YopH PTP inh – YopH tyrosine phosphatase inhibitors, primary screen, biochemical, fluorescence Ex485/Em525. inhibition, %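 (about 10 µM by stock and volumes)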. YopH tyrosine phosphatase [Yersinia enterocolitica]. 140,000 tested, 0.16% active;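 active means inhibition of 50% or more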;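 further: controls were vehicle for no effect and minimum signal wells for full effect; inactives centre near -20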
RecA splice inh – Mtb RecA intein splicing inhibitors, primary screen, biochemical, fluorescence, HTS; Protein RecA (Mycobacterium tuberculosis (strain ATCC 25618 / H37Rv)), P9WHJ3; cell-free RecA intein splicing; inhibition, %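 (about 9 µM by stock and volumes)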; 290,000 tested, 0.75% active; in the data active means inhibition above about 30%; inconclusive means no clear call, values can overlap the other calls;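 further: 0% = vehicle wells and 100% = reference inhibitor control wells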
Target sequence (P9WHJ3 whole entry, looked up, canonical isoform): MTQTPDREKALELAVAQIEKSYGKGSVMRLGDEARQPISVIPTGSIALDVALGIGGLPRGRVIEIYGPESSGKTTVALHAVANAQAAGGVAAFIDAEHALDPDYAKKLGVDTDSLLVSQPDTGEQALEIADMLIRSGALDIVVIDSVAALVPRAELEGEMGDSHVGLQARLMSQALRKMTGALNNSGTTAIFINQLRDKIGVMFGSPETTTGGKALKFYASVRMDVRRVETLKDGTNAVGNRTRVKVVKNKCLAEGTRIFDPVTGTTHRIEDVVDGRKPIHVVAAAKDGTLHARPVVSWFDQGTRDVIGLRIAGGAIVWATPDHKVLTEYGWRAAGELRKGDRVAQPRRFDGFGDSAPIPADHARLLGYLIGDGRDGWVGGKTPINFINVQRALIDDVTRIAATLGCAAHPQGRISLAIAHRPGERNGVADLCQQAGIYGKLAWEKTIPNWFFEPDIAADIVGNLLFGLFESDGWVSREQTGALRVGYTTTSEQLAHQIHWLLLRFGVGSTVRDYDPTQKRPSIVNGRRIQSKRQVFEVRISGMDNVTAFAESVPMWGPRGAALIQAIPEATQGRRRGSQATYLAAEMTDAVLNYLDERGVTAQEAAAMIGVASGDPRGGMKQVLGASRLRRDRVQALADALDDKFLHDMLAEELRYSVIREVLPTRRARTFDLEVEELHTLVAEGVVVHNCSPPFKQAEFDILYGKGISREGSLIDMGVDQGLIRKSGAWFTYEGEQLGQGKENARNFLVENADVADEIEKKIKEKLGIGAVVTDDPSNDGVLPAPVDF
Mtb H37Rv – M. tuberculosis H37Rv growth inhibitors, H37Rv strain (AID 1626); M. tuberculosis H37Rv growth inhibition; higher % means a stronger effect; one-dose inhibition, % at 10 µM; IC50 in µM for titrated hits; 220,000 tested, 0.95% active;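 active means confirmed in a dose series; inconclusive means inhibition above 80% but not taken into the dose series; inactive means below 80% or under 30% at every dose of the series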;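 further: bacteria incubated seven days before Alamar blue readout; 0% = bacteria only wells and 100% = bacteria with antibiotic wells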
Arbovirus inh – antivirals against arbovirus infection, primary screen, cell-based, full library, 10K replicate subset; arbovirus infection cell-based antiviral screen; inhibition, % at 10 µM; 200,000 tested, 0.37% active;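 active means inhibition from about 30%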;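 further: bluetongue infection of BSR cells; cell survival read as ATP light after 72 h; 0% = infected wells without compound and 100% = uninfected wells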
Mtb betalactam – beta-lactam sensitization of Mtb H37Rv, H37Rv. M. tuberculosis H37Rv growth with meropenem, percent inhibition; hits of this screen are not shown here. inhibition, % at 25 µM. AID 434955, 2010. 330,000 tested, 0.27% active;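 active means about 74% or more and at least 40 points above the plate without the antibiotic, then above 30% in a dose series; inconclusive means first-round hits that could not be retested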;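 further: growth measured after seven days incubation then overnight dye step; 0% = bacteria only wells and 100% = bacteria with antibiotic; twin plates without the antibiotic show which effects depend on it; some results filed as inactive read as strong as hits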
Arbovirus inh repeat – recorded beside Arbovirus inh, whose call it bears; inhibition, %; measured here: 10K subset replicate screen; many hits read low in the repeat;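 first of two repeat runs on a subset; 0% = infected and 100% = uninfected wells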
Starred values were filed as active, the others as inactive; ? = inconclusive; · = not tested or not shown.

SMILES	YopH PTP inh	RecA splice inh	Mtb H37Rv	Arbovirus inh	Mtb betalactam	others
C#CCn1c(=NC(=O)CSCC(=O)N2CCOCC2)sc2ccccc21	-27.7	-3.4	0.7%	-2.5	1.0
Cn1c(O)c(/C=C/C=Nc2ccccc2)c(=O)n(C)c1=S	-14.6	-2.9	4.8%	1.6	-1.7
Cc1ccc(OCC(=O)c2ccc(Cl)s2)c([N+](=O)[O-])n1	·	-2.1	5.6%	-3.0	5.7
COc1ccc(CNC(=O)N2CCc3ccccc3C2)cc1Cl	·	4.8	·	·	-4.2
CCNC(=O)COC(=O)c1cc(-c2ccc(OC)cc2)nc2ccccc12	-24.5	-4.5	2.0%	-3.3	5.6
Cn1c2ccccc2c2cnn(CC(=O)Nc3ccc(F)cc3F)c(=O)c21	·	3.8	-14.1%	·	-4.1
CCOc1ccc(S(=O)(=O)N2CCCCC2)c(C)c1C	·	4.2	3.7%	-1.2	·
COC(=O)C(CC(=O)c1ccc(Cl)cc1)c1ccc(C(C)C)cc1 (stereo not given)	-26.5	5.4	4.2%	-0.3	-1.3
Cc1cnc(NC(=O)CSc2ccccc2)s1	-6.4	-0.7	4.0%	-3.4	·
CS(=O)(=O)N(CCc1ccccc1)CC(=O)NCc1ccc(Cl)cc1	·	0.3	-1.1%	4.0	-9.0
O=C(C[n+]1cc(-c2ccccc2)n2c1CCC2)OCc1ccccc1	-12.7	-6.5	-7.2%	-2.0	-2.9
CCCCN(CC)CCCNC(=O)c1cc2cc3ccc(C)cc3nc2o1	·	-1.4	·	·	-5.0
CC1=Nc2cc(C(=O)NCc3ccco3)ccc2Sc2ccc(C)cc21	-26.3	-0.9	0.5%	-2.5	-3.6
O=C(COC(=O)c1c(Cl)cccc1Cl)NC1CCCCC1	·	·	8.4%	6.0	3.9
CC(CC(=O)Nc1ccc(F)cc1)S(=O)(=O)c1ccc2c(c1)NC(=O)CO2 (stereo not given)	·	-2.3	·	·	5.6
CCNC(=O)CN(c1ccc(CC)cc1)S(C)(=O)=O	-11.2	-1.2	1.0%	46.2*	2.2	Arbovirus inh repeat=5.1*
COc1cc(C(=O)N/N=C/C23CC[C@@H](O)CC2(O)CC[C@@H]2[C@@H]3CCC3(C)C(C4=CC(=O)OC4)CCC23O)ccc1O (stereo not given in full)	·	-1.4	-7.4%	·	-3.9
Cc1ccc(NC(=O)C2(c3ccccc3)CCOCC2)cc1	·	0.0	-5.2%	-10.7	3.3
Cc1ccc(OCC(=O)N/N=C/c2c[nH]c3ccccc23)c([N+](=O)[O-])c1	-25.4	1.8	-9.4%	-0.3	-2.2
Cc1ccc(NC(=O)C2CCN(C(=O)c3ccccc3C)CC2)nc1	·	-0.6	·	·	-6.6
CCOC(=O)C1=C(C)NC2=C(C(=O)CCC2)C1c1cc(OC)ccc1OC (stereo not given)	-19.5	-2.5	-8.0%	2.4	7.5	Arbovirus inh repeat=1.1
Cc1cc(OCC(=O)N2CCOCC2)cc2oc(=O)c3ccccc3c12	3.5	-2.3	-4.9%	0.0	2.7
S=C1NCCc2ccccc2C1c1ccccc1 (stereo not given)	-14.5	8.5	7.8%	3.1	-1.5
O=C(O)CSc1nnc(Cc2cccc3ccccc23)n1-c1cc(C(F)(F)F)cc(C(F)(F)F)c1	·	1.7	-10.0%	·	-6.6
CC(C)c1nnc(-c2ccc(Cl)cc2)c(N(C)C)n1	-39.7	1.2	-9.0%	1.1	-0.7
O=C(O)CCS(=O)(=O)Cc1ccccc1Cl	-29.3	-1.8	-6.4%	12.4	-6.6
CC(CNC(=O)COc1ccccc1)OC(=O)Nc1cccc(Cl)c1 (stereo not given)	-9.3	1.9	10.6%	-0.9	2.7
CCOc1cc(/C=C2/NC(=O)N(CC(=O)OC)C2=O)ccc1OC	·	-3.9	-1.9%	-4.2	0.4
Cc1cc(C)nc(Sc2ncnc3c2oc2ccccc23)n1	-7.5	1.1	4.4%	-1.3	-14.6
CCCCOc1ccc(CN(CCO)CCO)cc1[N+](=O)[O-]	-6.0	-1.0	7.8%	-5.3	12.0
C=C(C)CSc1nnc(-c2ccc(OC)cc2)n1N	-40.6	0.6	-3.4%	1.9	-2.7
O=C(CSc1cn[nH]n1)Nc1cccc(C(F)(F)F)c1	·	-0.4	·	·	2.6
COc1cccc(CN(C)Cc2c(O)ccc3ccccc23)c1	·	-5.0	·	·	3.1
Cc1csc2c(=O)sc(NC(=O)c3ccc(F)cc3)nc12	·	-0.4	-2.0%	·	20.9
Cc1cc(NC(=O)/C(C#N)=C/c2ccco2)n(-c2ccccc2)n1	-23.2	4.6	-1.0%	-6.7	-1.2
O=C(O)/C=C\c1cn(-c2ccccc2)nc1-c1cc2ccccc2o1	·	3.9	76.4%	9.8	95.8
Cc1c(C)c2ccc(OCC(=O)NCCN3CCOCC3)cc2oc1=O	·	0.4	·	·	2.0
CCCCCc1cc(=O)oc2c(C(CCN(CC)CC)c3cc(OC)c(OC)c(OC)c3)c(OC)cc(OC)c12 (stereo not given)	·	9.3	?	·	100.0
CCOC(=O)C(C)Sc1nc(-c2ccccc2)nc2ccc(F)cc12 (stereo not given)	-13.0	2.5	-1.2%	16.0	2.1
CCN(CC)CCNC(=O)CCCCn1c(=S)[nH]c2c([nH]c3ccc(OC)cc32)c1=O	-2.8	-2.8	-8.6%	-8.0	-0.5

4 entries picked at random from the list so far, as already listed:
SMILES	YopH PTP inh	RecA splice inh	Mtb H37Rv	Arbovirus inh	Mtb betalactam	others
Cc1csc2c(=O)sc(NC(=O)c3ccc(F)cc3)nc12	·	-0.4	-2.0%	·	20.9
O=C(O)CCS(=O)(=O)Cc1ccccc1Cl	-29.3	-1.8	-6.4%	12.4	-6.6
Cc1cc(OCC(=O)N2CCOCC2)cc2oc(=O)c3ccccc3c12	3.5	-2.3	-4.9%	0.0	2.7
Cc1cc(C)nc(Sc2ncnc3c2oc2ccccc23)n1	-7.5	1.1	4.4%	-1.3	-14.6

(next part)
SMILES	YopH PTP inh	RecA splice inh	Mtb H37Rv	Arbovirus inh	Mtb betalactam	others
CCn1cc(C(=O)NCCO)c(=O)c2cc(F)c(N3CCN(C)CC3)cc21	·	-1.2	·	·	-3.6
O=C(CSCc1cccc(F)c1)NCc1ccccc1	·	1.3	-5.3%	23.7	1.5
COc1cccc(-c2c(C(=O)N/N=C(\C)c3cccs3)nnn2-c2nonc2N)c1	·	-3.7	·	·	-4.9
COc1cc(/C=C2/SC(=S)N(CCC(=O)Nc3ccc(C(=O)O)cc3)C2=O)cc(OC)c1OC	·	13.1	·	·	-3.9
CCS(=O)(=O)N1CCC(C(=O)NCc2cccs2)CC1	13.9	·	-7.6%	0.2	3.5
CCn1nc(NS(=O)(=O)c2ccc(C)cc2)c2cc3ccccc3nc21	·	-0.2	·	·	-2.0
CCOC(=O)c1c(C)c(C(=O)NCCc2ccc(S(N)(=O)=O)cc2)c(C)n1CC	-31.0	2.3	·	12.6	-10.0
Cc1ccc(NC(=O)N2CCC(C(=O)NCC(C)C)CC2)cc1	-22.2	0.1	-7.1%	2.1	-3.1
O=S(=O)(NCCNS(=O)(=O)c1ccccc1)c1ccccc1	-15.8	-1.1	-8.6%	0.6	-1.3
Cc1ccc(NC(=O)N2CCCCC2)cc1NC(=O)N1CCCCC1	·	-1.2	-9.7%	·	1.7
CC1=CCC(C(C)(C)NC(=O)c2ccccc2)C/C1=N\O (stereo not given)	9.3	0.8	3.3%	·	-4.3
CCN(CC)c1ccc(NC(=O)c2cnn(CC)c2)cc1	-7.9	-1.5	61.2%	0.9	85.4
CCN(CC)S(=O)(=O)c1ccc(N2CCOCC2)c(NC(=O)c2ccc(F)cc2)c1	·	-10.5	3.1%	-1.4	-6.8
COc1ccc(C)cc1NC(=S)N1CCOCC1	·	-2.0	·	·	-0.8
CC(=O)Nc1ccc(NC(=O)Cc2ccc(F)cc2)cc1	·	1.9	2.5%	-0.3	-4.1
Cc1ccc(Cn2ccc(NC(=O)c3cc(-c4ccc5c(c4)OCO5)on3)n2)cc1	8.7	0.1	2.1%	4.5	·
N#C/C(=C/c1ccc(Sc2nc3ccccc3[nH]2)o1)c1cccc(Br)c1	2.9	9.0	62.8%	-10.1	92.5
Cc1c(NS(=O)(=O)N2CCCC2)c(=O)n(-c2ccccc2)n1C	-31.1	-5.6	-10.1%	9.6	-3.9
O=C(O)Cn1c(COc2ccc(Cl)cc2)nc2ccccc21	·	0.1	-12.5%	·	-11.7
CC(=O)N1CCN(C(=O)COc2ccc3oc4c(c3c2)CCCC4)CC1	·	-0.3	·	·	-8.0
CC1=C(C(=O)OCC(C)C)C(c2ccc(F)cc2)NC(=O)N1 (stereo not given)	-40.5	5.2	1.1%	2.8	-0.7
CC1(C)CC(=O)C=C(NCC(O)c2ccccc2)C1 (stereo not given)	·	-0.2	·	·	-4.1
CCOc1ccc(N=Nc2c(C)noc2C)cc1	·	0.9	-2.8%	-11.9	23.7
COc1ccc(/C=N/n2cnnc2SCc2ccccc2)cc1	4.7	-7.7	1.3%	0.5	-0.1
COC(=O)c1cccc(S(=O)(=O)N2CCC(c3nc4ccccc4o3)CC2)c1	-20.1	1.9	-3.2%	1.4	-3.7
COc1ccc(CNC(=O)Cn2c(=O)n(CC(=O)N3CCCCC3)c(=O)c3sccc32)cc1	·	3.0	·	·	-5.9
O=c1c2ccccc2nc2oc3ccccc3n12	·	-2.7	·	·	3.5
Cc1cccc(NC(=O)CNC(=O)c2cccc(-n3cccc3)c2)c1C	·	-1.4	·	·	-7.8
O=C(CSc1ncn[nH]1)c1cc2ccccc2o1	·	·	-3.2%	6.5	0.2
CN(C)c1ccc(N=Cc2nc(-c3ccccc3)oc2OC(=O)c2cccc(Cl)c2)cc1	-22.2	-4.2	5.4%	-2.9	4.9
Cc1ccc(O)c(NC(=O)c2ccccc2-c2ccccc2C(=O)O)c1	·	-5.8	·	·	2.1
O=C(CC(=O)Nc1ccc(F)cc1)Nc1ccc(F)cc1	·	-0.4	·	·	-0.7
Cc1ccc2ncc(S(=O)(=O)c3ccccc3)c(N3CCCCC3C)c2c1 (stereo not given)	·	23.5	·	·	-4.6
COc1ccc(C(=O)N2CCN(c3ccc([N+](=O)[O-])c(NCCc4ccc(OC)c(OC)c4)c3)CC2)cc1	18.0	-2.8	0.5%	-1.5	?
O=C1CCC(C(=O)Nc2cccc(S(=O)(=O)N3CCOCC3)c2)N1 (stereo not given)	·	1.1	7.7%	13.5	-11.3
Cc1ccc2cc(CN(C(=O)c3cccs3)c3ccccc3)c(=O)[nH]c2c1	·	-7.1	4.9%	·	0.2
O=C(COC(=O)CCC1CCCC1)NCc1ccc(Cl)cc1	·	-0.3	-2.0%	-0.8	-6.3
COc1ccc(CC(=O)N(C)CC(=O)Nc2ccccc2C(F)(F)F)cc1S(=O)(=O)N1CCOCC1	·	-7.7	·	·	-16.2
COc1ccc(OC)c(NC(=O)Nc2cnccn2)c1	·	0.9	·	·	-3.4
O=C(c1nnc(-c2ccccc2)o1)C1CC1	·	0.8	1.4%	11.4	-9.2
CC(=O)CCc1oc2ccc([N+](=O)[O-])cc2c1-c1ccc(C)o1	·	9.3	7.1%	-16.8	1.5
CN1CCN(C2CC(=O)N(Cc3ccc(N4CCCC4=O)cc3)C2=O)CC1 (stereo not given)	12.9	1.3	-5.4%	7.6	-7.0
O=C(c1cc(Cl)nc2ccccc12)N(Cc1nnc(-c2ccccc2Cl)o1)C1CC1	·	3.7	·	·	-3.2
Cc1ccc(O)c(C2=Nc3ccccc3N=C(c3ccco3)C2)c1	-18.9	-0.7	0.2%	6.2	2.0
CN(C)c1nc(SCc2ccccc2Cl)nc2c1CCCC2	-33.4	11.2	-23.1%	6.0	28.1
C#CCn1cc(/C=N/NC(=O)c2cc3ccccc3o2)c2ccccc21	-24.6	5.1	3.5%	-5.5	0.4
CCCCC(=O)Nc1ccc2c(c1)nc1n2CCN(CCOC)C1	·	-0.1	-5.6%	·	·
Cn1cc(Cl)c(C(=O)NNC(=S)Nc2cccc(Cl)c2)n1	·	1.6	4.8%	0.6	-2.2
CCN1CCN(c2nc(N)c([N+](=O)[O-])c(Nc3cccc(C)c3)n2)CC1	-6.7	-2.9	2.8%	-21.0	-2.1
CCN(C(=O)CSc1ncn[nH]1)c1cccc2ccccc12	-47.5	0.9	-13.2%	12.4	-11.8

This is a subset; rates above refer to the full screens.
